# CDC25B-CDK2 inh: human CDC25B-CDK2/CyclinA binding inhibition. HTRF CDC25B-CDK2/CyclinA binding, anti-His/anti-Flag; hits give high values. 94,000 compounds, 0.72% hits. P30305+P24941. z-score (test concentration not listed). AID 1259370;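 also: score is relative to mean and SD of negative controls; strong numbers were not always called active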
# HIV TAR-Tat: HIV-1 TAR-Tat binding disruption; HIV-1 TAR RNA, Tat peptide displacement FRET; hits give high values; z-score (test concentration not listed); 100,000 compounds, 0.6% hits; AID 1259389;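 also: score is relative to mean and SD of negative controls; some compounds called inactive have numbers as strong as hits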
# * hit, by the source's call; · = no result given.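 The calls were made as follows: active = z-score from 3 up in half or more of its runs; inactive = the rest.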
molecule	CDC25B-CDK2 inh	HIV TAR-Tat
c1cc2c(cc1CN1CCN(Cc3csc4c3CCCC4)CC1)OCO2	·	-0.04
O=C(Nc1nc2cc(NS(=O)(=O)c3ccc(Cl)cc3)ccc2s1)C1CCCCC1	·	0.5
O=c1c2nccnc2nc(SCc2ccccc2F)n1CCc1ccccc1	-1.5	0.59
CCc1nc(SC)ncc1C(=O)Nc1ccc(Br)c(C)c1	·	-1.6
O=C(Cn1ncn2nc(-c3cccs3)cc2c1=O)NCC1CCCO1 (configuration not stated)	-1	-0.74
O=C(Oc1ccccc1C(=O)O)c1ccccc1O	·	2.7
Cc1nc2ccccc2nc1SCC(=O)Nc1ccc2c(c1)OCO2	·	1.2
CCCN1CCc2nc(N3CCOCC3)ncc2C1	·	-0.05
CC(C)(C)OC(=O)N1CCN(S(=O)(=O)c2ccc(Cl)cc2)CC1	-1	·
Fc1ccc(-c2cc(-c3nc(-c4ccncc4)no3)[nH]n2)cc1	·	-1.5
CCOC(=O)c1c(S(=O)(=O)Nc2cc(Cl)c(OC)cc2OC)c(C)n(C)c1C	·	2.5
O=S(=O)(CCN(CC1CCCO1)S(=O)(=O)c1ccc(Cl)cc1)N1CCNCC1 (configuration not stated)	·	1.5
Cc1ccc(S(=O)(=O)c2cn(C)c3cc(N4CCCC(C)C4)c(F)cc3c2=O)cc1 (configuration not stated)	·	1
Cc1occc1-c1nnc2n1N=C(c1ccc(Cl)cc1)CS2	-1.6	-0.29
Cc1nn(C(C)C(=O)NC(C)C)c(=O)c2nn(-c3ccccc3)c(C)c12 (configuration not stated)	·	-0.65
O=C1CCCC2=C1C(c1ccc(F)cc1)n1ncnc1N2 (configuration not stated)	·	0.88
COc1ccc(CNc2nc(-c3ccccc3F)no2)c(OC)c1	·	-0.34
CCN1CCN(c2ncnc3c2c(-c2ccccc2)cn3-c2ccccc2C)CC1	-1.5	-0.85
CC1CCCC(C)N1C(=O)Cn1cc(C(=O)c2ccco2)c2ccccc21 (configuration not stated)	-1.4	1.2
COc1cc(C2NC(C(=O)O)CS2)ccc1OCc1ccccc1F (configuration not stated)	-0.66	-0.21
CCCn1c(=O)c2c(C(=O)O)cc(=O)n(CCC)c2n(C)c1=O	-0.49	2.6
CCCCNCc1noc2ccccc12	·	0.93
COc1ccc(/C(O)=C2/C(=O)C(=O)N(c3cccc(C(=O)O)c3)C2c2ccccc2)cc1 (configuration not stated)	-0.7	0.77
Cc1ccc(CSc2nc(=O)n(C3CCCC3)c3c2CCC3)cc1	0.75	0.5
CCOC(=O)N1CCC(NC(=O)c2cc3c(s2)-c2ccccc2OC3)CC1	-0.45	1
O=C1CC(C(=O)Nc2ccc(Cl)cc2)SC(=Nc2ccccc2)N1 (configuration not stated)	-1.6	-0.14
CCCCOc1ccc(S(=O)(=O)n2nc(C)c(S(=O)(=O)N3CCOCC3)c2C)cc1	·	0.67
O=C(Nc1ccc(F)cc1)c1nn(-c2ccc(F)cc2)ccc1=O	0.56	-0.15
Cc1nc2c(=O)n(-c3cc(C(F)(F)F)ccc3Cl)nc(C)c2s1	2.8	·
CNc1cc(NS(=O)(=O)c2ccc(N)cc2)nc(NC)n1	-0.16	·
O=S(=O)(Nc1ccc2ccccc2n1)c1cccs1	-1.5	·
CCOCc1nc(N2CCCC2)sc1C(=O)NCc1ccco1	·	1.6
O=C1SC(Nc2ccccc2Cl)C(=O)N1c1ccccc1 (configuration not stated)	-0.48	·
COC(=O)c1cc(-c2ccccn2)nc2ccccc12	-1.2	0.77
Cn1c(=O)oc2cc(S(=O)(=O)NCc3ccco3)ccc21	-0.52	0.27
O=C(/C=C/C(=O)Nc1ccccc1C(F)(F)F)Nc1ccccc1C(F)(F)F	-0.6	·
CCc1ccc(S(=O)(=O)N2CCN(c3cc(N4CCOCC4)nc(C)n3)CC2)cc1	2.5	0.07
O=C(NC1CCCc2ccccc21)C1CCN(c2nc3ccccc3[nH]2)CC1 (configuration not stated)	-0.89	0.8
CC(=O)N1N=C(c2ccc(Cl)cc2)OC1c1ccc(Br)cc1 (configuration not stated)	1.2	0.13
CCOc1cc(S(=O)(=O)n2ccnc2C)ccc1F	-0.65	0.19
Cc1ccc(C)c(NC(=O)N2CCN(c3cc(N4CCCC4)nc(C)n3)CC2)c1	-1.3	0.61
O=C(NCCc1cccs1)C1COc2ccccc2C1 (configuration not stated)	·	0.2
COc1ccc(OC)c(-c2noc(CSc3nnc(C)n3-c3ccc(C)cc3)n2)c1	-2	2.7
CC1=C(C(=O)OCCc2ccccc2)C(c2cccs2)C2=C(CCCC2=O)N1 (configuration not stated)	-0.81	-0.42
CC(=O)Oc1c(-c2ccccc2)sc2ccccc12	-1.8	·
CSc1nc(Nc2ccccc2F)c(C#N)c(-c2ccccc2)n1	-15	0.04
Cc1ccc(Nc2nc(N3CCOCC3)nc3c2cnn3C)cc1Cl	·	0.73
O=C(NCc1ccc2c(c1)OCO2)c1ccc2c(c1)N(Cc1ccc(F)cc1)CCS2	-0.63	1.8
CCCCN1C=C(OC(=O)c2ccco2)c2ccccc2S1(=O)=O	-1.6	-0.41
COCCNC(=O)C(NS(=O)(=O)c1cccs1)C(C)C (configuration not stated)	·	1.2
COc1cc(-c2cc(OC)c3c(C)oc(C)c3c(=O)c2)ccc1OC(=O)c1ccccc1F	-2.3	0.51
CC(=O)O[C@H]1CCC2(C)C3=C(CCC2C1(C)C)[C@]1(C)CCC(C(C)CCC=C(C)C)[C@@]1(C)CC3 (some centres not stated)	·	2.7
CCOC(=O)C1CCN(C(=O)Cn2nc(CC)n3c(cc4sccc43)c2=O)CC1	1.6	-1.4
O=c1c2c(nc3nc(NCc4ccc(F)cc4)[nH]n13)CCCC2	-1.1	0.13
O=C(c1ccco1)N1CCN(C(=O)c2cccs2)CC1	·	1.6
CC1CCCC(C)N1C(=O)C1CC(c2ccc(F)cc2)=NO1 (configuration not stated)	-0.97	-0.25
COc1ccc(-c2ccnc(SCC(=O)NC3Cc4ccccc4C3)n2)cc1	-1.9	·
Cc1c(S(=O)(=O)c2ccccc2)nnn1-c1ccccc1	-1.2	1.2
Cc1cccc(OCc2cc(=O)n3cc(C)sc3n2)c1	-1.3	0.71
O=C(c1ccc(Br)cc1)N1CCn2c1nc1ccccc1c2=O	0.88	0.65

# Look-ups from the list:
# In HIV TAR-Tat, `Cc1ccc(C)c(NC(=O)N2CCN(c3cc(N4CCCC4)nc(C)n3)CC2)c1` reads 0.61
# In HIV TAR-Tat, `O=C(NCc1ccc2c(c1)OCO2)c1ccc2c(c1)N(Cc1ccc(F)cc1)CCS2` reads 1.8
# In HIV TAR-Tat, `O=C(c1ccc(Br)cc1)N1CCn2c1nc1ccccc1c2=O` reads 0.65
# In HIV TAR-Tat, `Cc1cccc(OCc2cc(=O)n3cc(C)sc3n2)c1` reads 0.71
# In HIV TAR-Tat, `COCCNC(=O)C(NS(=O)(=O)c1cccs1)C(C)C` (configuration not stated) reads 1.2
# In CDC25B-CDK2 inh, `COc1ccc(-c2ccnc(SCC(=O)NC3Cc4ccccc4C3)n2)cc1` reads -1.9

# The list goes on:
molecule	CDC25B-CDK2 inh	HIV TAR-Tat
Cc1ccccc1-c1nc2scc(CCNS(=O)(=O)c3cccs3)n2n1	·	1.6
O=C(CCN1C(=O)S/C(=C/c2ccc(Cl)cc2)C1=O)Nc1ccc(S(=O)(=O)Nc2nccs2)cc1	-0.03	·
Cc1ccc(-c2noc(CSc3nnc(C)n3-c3ccc(C)cc3)n2)cc1	0.93	2
CC1=C(c2cccc(Cl)c2)S(=O)(=O)NC1=NCCC(C)C	-7.1	1.1
CCOC(=O)c1ccc(-n2c(=O)c(C#N)cc3c(=O)n4ccccc4nc32)cc1	-3	-2.5
CSc1ccc(C2C3(C#N)C(N)=NC4(OCCO4)C23C#N)cc1 (configuration not stated)	1	·
O=C1CCCN1CCCNc1ncnc2onc(-c3ccc(F)cc3)c12	·	-0.1
Nc1ncnc(Nc2ccc(F)c(Cl)c2)n1	-0.33	·
O=C(c1ccco1)N1CCN(C(=O)C2Cc3ccccc3N2C(=O)c2ccccc2)CC1 (configuration not stated)	·	1.2
Cc1ccc(S(=O)(=O)c2nnn(-c3cccc(F)c3)c2C)cc1C	1.5	0.35
Nc1nnc(COc2ccccc2)s1	1.4	1.6
CN(C)CC#Cc1cccc(/C=N/O)c1	-2.2	·
O=C(Cn1c2ncccc2c(=O)n1-c1ccccc1)Nc1ccc(F)cc1F	·	0.58
Cn1c(C(=O)NCc2ccco2)cc2cc(S(=O)(=O)N3CCCCC3)ccc21	·	1.6
CC(C)N1CCn2c(nc3cc(NC(=O)NC4CCCCC4)ccc32)C1	1.3	-8.9
O=C(COc1ccccc1)Nc1nnc2n1CCCS2	·	0.11
Cc1nc(N)nc(N(C)C)n1	-0.59	·
CCc1sc(-c2c(C#N)c(N)nc3c2CCCC3)cc1Br	-6.3	1.3
COc1ccc(C(C)=O)cc1COc1cc(C)nc2ccc(Cl)cc12	-3.1	·
C=CCNc1nc(CC(=O)OCC)cs1	-0.75	0.78
COc1ccc(-c2nc(N3CCCC3)nc3n[nH]c(N)c23)cc1	0.12	·
CCOC(=O)N/N=C(/C(=O)OCC)C(F)(F)F	0.25	·
O=C(c1cn(-c2cccc(Cl)c2)nn1)N1CCc2ccccc2C1	·	1.4
COc1ncccc1S(=O)(=O)N1CCCCC1	-0.33	0.52
Brc1ccccc1-c1nn2c(Cn3cnc4ccccc43)nnc2s1	-0.04	0.33
Cn1c(=O)c2c(-c3ccccc3)n(-c3ccc(N)cc3)cc2n(C)c1=O	-0.79	1.1
Cc1nc2sc(C(c3ccco3)N3CCN(c4ccc(F)cc4)CC3)c(O)n2n1 (configuration not stated)	-1.1	·
CC(C)N(CC(O)CN1C(=O)NC(C)(C)C1=O)C(C)C (configuration not stated)	-1.3	·
C=CCN1C(=O)CN2c3ccccc3C(C)(C)C12C (configuration not stated)	-0.76	·
Cc1cccc(NC(=O)C2C3C=CC4(O3)C2C(=O)N(C2CC2)C4C(=O)NC2CCCCC2C)c1 (configuration not stated)	0.11	·
CCCN1C(=O)c2cc(C(=O)O)ccc2C1O (configuration not stated)	-0.53	1.6
CC1Cc2cc(S(=O)(=O)N3CCC(C(=O)N4CCCCC4)CC3)ccc2N1C(=O)C1CCC1 (configuration not stated)	·	1.6
CCn1nc(C)c(CNC(=O)Nc2ccc(F)cc2)c1C	·	0.27
Cn1c(=O)oc2cc(S(=O)(=O)N3CCN(Cc4nc5ccccc5o4)CC3)ccc21	·	1.7
CCOC(=O)c1c(S(=O)(=O)NC(CC)CN2CCOCC2)c(C)n(C)c1C (configuration not stated)	·	1.7
O=C(NCc1ccco1)c1ccc2c(=O)[nH]c3c(C(=O)NCC4CCCO4)sc(=S)n3c2c1 (configuration not stated)	·	4.7*
CCN1CCc2nc(NC(=O)c3sc4ccccc4c3Cl)sc2C1	·	0.17
CCn1nc(C)c(CCNC(=O)Nc2ccccc2Cl)c1C	·	-0.27
COc1cccc(-c2nc(S(=O)(=O)c3ccc(Cl)cc3)c(N3CCOCC3)o2)c1	0.94	1.8
CC1CCCN(C(=O)Cn2c(=O)oc3cc(S(=O)(=O)N4CCCCCC4)ccc32)C1 (configuration not stated)	-2.5	·

# Single records, as listed above. Values in the order: CDC25B-CDK2 inh | HIV TAR-Tat
# Listed for `O=C(c1ccco1)N1CCN(C(=O)c2cccs2)CC1` → · | 1.6
# Listed for `CC(C)(C)OC(=O)N1CCN(S(=O)(=O)c2ccc(Cl)cc2)CC1` → -1 | ·
# Listed for `O=c1c2c(nc3nc(NCc4ccc(F)cc4)[nH]n13)CCCC2` → -1.1 | 0.13
# Listed for `C=CCN1C(=O)CN2c3ccccc3C(C)(C)C12C` (configuration not stated) → -0.76 | ·

# (list continues)
molecule	CDC25B-CDK2 inh	HIV TAR-Tat
O=C(O)/C=C/C(=O)NCCNc1ncc(C(F)(F)F)cc1Cl	0.44	·
O=C(Oc1cccc2c1CCC2=O)c1ccccc1	-0.29	·
O=C(Nc1noc2c1COc1ccccc1-2)N1CCN(c2ccccc2F)CC1	·	2.8
CCOc1ccc(NC(=O)C2CC3CSCN3C23C(=O)Nc2ccccc23)cc1 (configuration not stated)	·	-0.04
C=CCn1c(SCC(=O)N2CCc3ccccc32)nnc1-c1cc2ccccc2o1	·	-0.21
COc1cnc(CSc2nc(C)cc(C)n2)cc1OCC(=O)NC(C)C	·	2
CC1CN(c2sc(S(C)(=O)=O)nc2S(=O)(=O)c2ccc(Cl)cc2)CC(C)O1 (configuration not stated)	-1.8	2.7
O=C(c1ccco1)N1CCN(C(=O)c2cc3c(s2)-c2ccsc2CC3)CC1	·	1.2
CCOc1c(NCc2ccccc2)c(=O)c1=O	-0.75	·
OCC(S)CS (configuration not stated)	·	-0.33
O=C1CC(C(=O)Nc2ccc(F)cc2Cl)n2c(cc3ccccc32)S1 (configuration not stated)	·	-1.9
CCCCN1CCc2nc(Nc3cc(OC)ccc3OC)ncc2C1	·	0.96
O=C(CSc1ccc2nnc(-c3cccc(F)c3)n2n1)c1ccccc1	-2.7	·
O=C(Nc1ccc2nc3n(c(=O)c2c1)CCCCC3)C(=O)NC1CCCC1	-2.1	·
Cc1nnc(N2C(=O)C(O)=C(C(=O)c3cccs3)C2c2ccc(C(C)C)cc2)s1 (configuration not stated)	-1.2	-3.6
COc1ccc2[nH]c3c(=O)n(-c4ccc(Cl)cc4)c(=S)[nH]c3c2c1	0.24	·
COc1cc(CC/C(C)=N/O)ccc1O	-1.2	·
Cc1nn(CCCC(=O)Nc2sc3c(c2C(N)=O)CCCC3)c(C)c1[N+](=O)[O-]	-0.05	·
Cc1nc2sc(C(c3cccc(Cl)c3)N3CCCC(C)C3)c(O)n2n1 (configuration not stated)	-1.6	·
OC(c1ccccc1)c1nc2ccccc2n1CCc1ccccc1 (configuration not stated)	1.3	0.63

# Assay outcomes as filed in PubChem.
